Source: PubChem BioAssay
Mtb H37Rv = M. tuberculosis H37Rv growth inhibitors, H37Rv strain (AID 1626) | inhibition, % at 10 µM; hits with a dose series show IC50 in µM | M. tuberculosis H37Rv growth inhibition; higher % means a stronger effect | hit rate 0.95% among 220,000;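 active = confirmed in a dose series; inconclusive = inhibition above 80% but not taken into the dose series; inactive = below 80% or under 30% at every dose of the series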;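 note: bacteria incubated seven days before Alamar blue readout; 0% = bacteria only wells and 100% = bacteria with antibiotic wells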
Arbovirus anti = arbovirus infection inhibition; hit rate 0.37% among 200,000; arbovirus infection cell-based antiviral screen; inhibition, % at 10 µM;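 active = inhibition from about 30%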;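 note: bluetongue infection of BSR cells; cell survival read as ATP light after 72 h; 0% = infected wells without compound and 100% = uninfected wells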
RecA splice inh = Mtb RecA intein splicing inhibition. P9WHJ3. cell-free RecA intein splicing, fluorescence. inhibition, %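 (about 9 µM by stock and volumes)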. hit rate 0.75% among 290,000. AID 2221; in the data active = inhibition above about 30%; inconclusive = no clear call, values can overlap the other calls;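 note: 0% = vehicle wells and 100% = reference inhibitor control wells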
Target sequence (P9WHJ3 whole entry, looked up, canonical isoform): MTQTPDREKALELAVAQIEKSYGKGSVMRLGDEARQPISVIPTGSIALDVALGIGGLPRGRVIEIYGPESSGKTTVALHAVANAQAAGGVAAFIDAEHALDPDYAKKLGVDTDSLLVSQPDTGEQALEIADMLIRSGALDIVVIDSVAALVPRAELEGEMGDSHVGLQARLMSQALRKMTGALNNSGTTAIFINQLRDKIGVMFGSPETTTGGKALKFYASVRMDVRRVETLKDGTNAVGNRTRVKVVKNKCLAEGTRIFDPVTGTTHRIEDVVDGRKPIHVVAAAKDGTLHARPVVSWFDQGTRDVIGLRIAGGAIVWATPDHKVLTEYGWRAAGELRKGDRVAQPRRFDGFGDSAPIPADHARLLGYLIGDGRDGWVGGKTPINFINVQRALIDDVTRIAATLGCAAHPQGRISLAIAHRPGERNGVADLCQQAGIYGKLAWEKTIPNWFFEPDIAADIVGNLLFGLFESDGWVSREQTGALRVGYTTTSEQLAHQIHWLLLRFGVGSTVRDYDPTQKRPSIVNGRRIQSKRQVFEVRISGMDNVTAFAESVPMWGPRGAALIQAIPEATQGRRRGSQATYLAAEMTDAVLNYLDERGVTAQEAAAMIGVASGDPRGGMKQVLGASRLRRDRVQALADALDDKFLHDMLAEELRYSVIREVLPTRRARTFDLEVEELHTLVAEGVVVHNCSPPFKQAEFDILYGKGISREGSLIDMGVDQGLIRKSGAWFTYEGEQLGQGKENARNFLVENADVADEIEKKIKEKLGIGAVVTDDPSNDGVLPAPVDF
Mtb betalactam = beta-lactam sensitization of Mtb H37Rv; inhibition, % at 25 µM; AID 434955; hit rate 0.27% among 330,000; M. tuberculosis H37Rv growth with meropenem, percent inhibition; hits of this screen are not shown here;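 active = about 74% or more and at least 40 points above the plate without the antibiotic, then above 30% in a dose series; inconclusive = first-round hits that could not be retested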;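 note: growth measured after seven days incubation then overnight dye step; 0% = bacteria only wells and 100% = bacteria with antibiotic; twin plates without the antibiotic show which effects depend on it; some results filed as inactive read as strong as hits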
YopH inh = blocks Yersinia enterocolitica YopH tyrosine phosphatase; fluorescence Ex485/Em525; inhibition, %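 (about 10 µM by stock and volumes)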; hit rate 0.16% among 140,000;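 active = inhibition of 50% or more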;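 note: controls were vehicle for no effect and minimum signal wells for full effect; inactives centre near -20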
Arbovirus anti repeat = second read-out of Arbovirus anti, no call of its own (marks repeat the call); inhibition, %; measured here: 10K subset replicate screen; many hits read low in the repeat;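 first of two repeat runs on a subset; 0% = infected and 100% = uninfected wells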
Numbers without * were called inactive; ? = inconclusive; nt = no result given.

SMILES	Mtb H37Rv	Arbovirus anti	RecA splice inh	Mtb betalactam	YopH inh	others
Cc1c(C(=O)NCCC2=CCCCC2)cccc1[N+](=O)[O-]	13.6%	7.0	-2.5	-1.4	-45.6
O=[N+]([O-])c1ccccc1S(=O)(=O)Nc1ccc(S(=O)(=O)Nc2nccs2)cc1	nt	nt	1.3	98.1	nt
CC(Cc1c[nH]c2ccccc12)C(=O)N1CCN(c2ccccc2F)CC1 (centres undefined)	nt	nt	3.1	-4.9	nt
Cc1ccc(S(=O)(=O)CCC(=O)OCC(=O)c2c[nH]c3ccccc23)cc1	-0.1%	-3.9	-0.2	8.0	-23.0
CCCCNC(=O)C1CCN(Cc2ccc(OCc3ccccc3)c(OC)c2)CC1	nt	nt	0.7	-2.4	nt
CC(Cc1ccsc1)NCc1cn[nH]c1-c1ccc(F)cc1F (centres undefined)	1.1%	nt	-0.2	7.3	nt
COc1ccc(S(=O)(=O)NC(C)C)cc1C(=O)N1CCOCC1	-7.5%	3.5	2.0	-1.7	nt
Cc1cc(NC(=O)c2cc([N+](=O)[O-])ccc2Cl)no1	-4.6%	nt	0.8	0.5	nt
COc1ccc2sc(N3C(=O)C4CC=C(C)CC4C3=O)nc2c1 (centres undefined)	-7.1%	16.3	6.3	-0.9	-14.2
Cc1cc(C)n2nc(CC(=O)NNC(=O)COc3ccccc3)nc2n1	nt	nt	-0.8	1.9	nt
CCc1c(C(=O)NC2CCCC2)csc1C	-0.3%	1.9	-0.2	-12.9	-26.0
N#C/C(=C\c1ccc(-c2ccc(C(=O)O)cc2)o1)C(=O)Nc1ccc(F)cc1	nt	nt	-7.1	4.4	nt
N#Cc1cccc(-c2nnc(SCc3ccccc3C#N)o2)c1	0.9%	-4.4	-2.9	-2.8	-14.2
COc1ccc(CN2CCNC(=O)C2CC(=O)NC2CCCCC2)c(OC)c1 (centres undefined)	nt	nt	-0.3	-3.2	nt
CC1CCCN(C(=O)c2cn(-c3ccccc3)nc2-c2cccnc2)C1 (centres undefined)	nt	nt	8.8	-1.4	nt
O=C(Nc1nc(COc2ccccc2)cs1)C1CCC1	-10.7%	11.9	-0.4	-5.2	-8.4
COC(=O)CN1C2(C#N)CCCCC2CC2CCCCC21C#N (centres undefined)	-10.6%	7.6	1.7	-13.2	-16.9
Cc1ccc(-c2c(C(=O)N/N=C/c3c[nH]c4ccccc34)nnn2-c2nonc2N)cc1	nt	nt	2.4	0.7	nt
CCN(CC)C(=O)CSC(Nc1ccc(F)cc1)=C(C#N)C#N	-5.8%	nt	29.1	-0.1	nt
Cc1ccc(N2CCN(c3ccc(C)cc3)C2c2ccccn2)cc1	11.9%	-0.3	4.2	-4.8	-12.3
CC1=NN(c2ccccc2)C(=O)/C1=C\c1cc(C)n(C)c1C	-1.2%	nt	21.6	-3.3	nt
O=[N+]([O-])c1ccccc1COc1ccc(Cl)c2cccnc12	nt	nt	0.5	-4.7	nt
Nc1ccc(C(=O)C(=O)c2ccccc2)cc1	nt	nt	-0.2	-15.1	nt
O=C(NC(=S)NNS(=O)(=O)c1ccccc1)c1ccccc1[N+](=O)[O-]	1.2%	2.7	-4.3	0.7	-57.1
O=C1CCC(=O)N1c1nc2nc(-c3ccccc3)cc(=O)n2[nH]1	-5.7%	2.0	-4.7	-4.7	-22.3

Reprinted from the part before: 2 entries, then new ones.
SMILES	Mtb H37Rv	Arbovirus anti	RecA splice inh	Mtb betalactam	YopH inh	others
O=C(NC(=S)NNS(=O)(=O)c1ccccc1)c1ccccc1[N+](=O)[O-]	1.2%	2.7	-4.3	0.7	-57.1
O=C1CCC(=O)N1c1nc2nc(-c3ccccc3)cc(=O)n2[nH]1	-5.7%	2.0	-4.7	-4.7	-22.3
Cc1cc(NC(=O)CSc2ccc(-c3ccc(F)cc3)nn2)no1	0.8%	1.7	2.2	3.5	nt
Cc1cccc(C)c1OCC(O)CNS(=O)(=O)c1ccccc1C(=O)N1CCOCC1 (centres undefined)	3.5%	0.5	-0.9	nt	-28.9
CCc1nc(CN(C)C(=O)C2CCC(=O)N(CCc3cccc(F)c3)C2)no1 (centres undefined)	nt	nt	-3.4	-1.6	nt
CC(OC(=O)c1cccs1)C(=O)NCc1ccco1 (centres undefined)	2.1%	14.6	nt	2.9	16.0
O=C(COc1ncnc2ccccc12)Nc1cc(S(=O)(=O)N2CCOCC2)ccc1Cl	-5.3%	nt	-0.6	-8.6	nt
COC(=O)CC1=C(C(=O)OC)C(c2ccncc2)C(C#N)=C(N)O1 (centres undefined)	-6.2%	-4.3	1.0	-18.6	-5.9
Cc1nnc(NC(=O)CSc2cn(Cc3ccccc3)c3ccccc23)s1	6.0%	-0.3	-1.2	-2.0	-32.1	Arbovirus anti repeat=-7.5
COc1ccc([N+](=O)[O-])c(OC)c1C(=O)NC(=O)Nc1c(F)cc(F)cc1F	-9.7%	nt	nt	1.7	nt
CC1=CC(C)(C)N(S(=O)(=O)c2ccc(C)cc2)c2ccccc21	-3.7%	3.7	19.5	1.2	-6.1
COc1ccc(C(CC(=O)O)NC(C)=O)cc1OC (centres undefined)	6.2%	1.9	0.4	-1.6	-17.8
c1cc(C2OCCN2CC2COC3(CCCC3)O2)ccn1 (centres undefined)	-3.0%	3.4	-1.1	-8.0	1.3
O=C(COC(=O)c1cc(=O)[nH]c2ccccc12)c1ccccc1	-0.8%	-3.4	-1.5	-5.2	nt
COc1ccccc1CCN=C(N)NS(=O)(=O)c1ccc(C)c(C)c1	nt	nt	3.5	0.5	nt
C=CCOc1ccc(Br)cc1/C=N/O	7.6%	-1.4	1.4	13.6	-12.6
COCC(C)NC(=O)C1CC(c2cccc(Br)c2)=NO1 (centres undefined)	3.9%	-2.4	0.5	-2.8	-24.0
CCOC(=O)N1CCN(C(=O)CSc2ccc(-c3ccccc3)nn2)CC1	-2.7%	0.6	8.2	-1.7	nt
N#Cc1cn(Cc2ccccc2)c(=O)[nH]c1=O	-1.7%	3.0	-3.1	-7.0	nt
COc1cccc(C(=O)NCCSc2c(C)[nH]c3ccccc23)c1OC	11.1%	nt	2.5	-3.2	nt
CCOc1cc(C2Nc3ccccc3NC3=C2C(=O)CC(C)(C)C3)ccc1OC(C)=O (centres undefined)	nt	nt	1.1	2.5	nt
Cn1c(=O)c(C(=O)CSc2nnc(Nc3ccccc3)s2)c(N)n(Cc2ccccc2)c1=O	8.0%	-4.7	2.4	-0.9	10.0
Cc1cc(C)n(-c2nnc(N3CCN(c4ccc(F)cc4)CC3)nn2)n1	0.9%	3.0	-0.5	-0.4	nt
CCC(C)(C)NC(=O)C(c1ccc(OC)cc1)N(C(=O)CCC(=O)Nc1cc(C)on1)c1ccccc1F (centres undefined)	nt	nt	1.4	-1.1	nt
CCOC(=O)c1c(/N=C/N(C)C)sc(C)c1C	3.4%	-1.2	-1.6	6.7	nt
CC(C)(C)C(=O)N1CCc2cc(-c3csc(N)n3)ccc21	4.7%	-11.6	-1.9	91.0	-156.5
CC(NC(=O)c1cccnc1)C(c1cccs1)N1CCN(C)CC1 (centres undefined)	2.8%	-1.4	-1.2	-5.7	-12.0	Arbovirus anti repeat=0.9
SMILES	Mtb H37Rv	Arbovirus anti	RecA splice inh	Mtb betalactam	YopH inh	others
CCOC(=O)N1CCc2c(sc(NC(=O)c3ccc(S(=O)(=O)N4CCCC4)cc3)c2C#N)C1	nt	15.8	9.8	1.1	-17.9	Arbovirus anti repeat=2.1
CC1=C(C(=O)Nc2ccccc2)C(c2ccco2)C(C#N)=C(SCC(N)=O)N1 (centres undefined)	2.4%	5.4	-2.1	5.8	-16.3
Cc1nc2c(C)cccn2c1/C(O)=C1\C(=O)C(=O)N(CCN2CCOCC2)C1c1ccncc1 (centres undefined)	-6.3%	1.2	-0.5	-12.9	-46.2
N#Cc1ccc2ccn(CC(=O)NCc3ccccc3)c2c1	14.5%	-10.8	0.3	-9.0	16.4
COc1ccc(CCNC(=O)CSc2ccsc2[N+](=O)[O-])c(OC)c1	3.5%	-2.2	-3.9	-1.7	nt
CC(C)CCn1c(=O)c2ccccc2n2c(=S)[nH]nc12	nt	nt	-1.6	1.5	nt
Cc1ccc2nc3c(cc(C(=O)NCc4ccco4)c(=N)n3Cc3ccco3)c(=O)n2c1	14.4%	1.7	-32.6	9.0	nt
Cc1c(C)c2ccc(OC(C)C(=O)NCCCn3ccnc3)c(C)c2oc1=O (centres undefined)	nt	nt	-2.0	5.6	nt
O=C(Nc1ccc(Cl)cn1)c1cccc(S(=O)(=O)N2CCCC2)c1	nt	nt	1.3	-0.9	nt
N#Cc1cccc(CSc2ncnc(N)n2)c1	nt	nt	4.4	-3.2	nt
CN(C)c1cc2c(cc1NC(=O)c1ccccc1Cl)n(C)c(=O)n2C	nt	nt	-0.6	4.9	nt
CCOC(=O)c1[nH]c(C)c(C(=O)NC(C)(C)C)c1C	6.8%	8.6	-3.0	2.1	-52.5
CCOc1ccc2[nH]c(=O)c(CN(CCO)C(c3nnnn3C3CCCCC3)C(C)C)cc2c1 (centres undefined)	6.7%	9.1	-8.6	nt	-30.5
CC(C)NC(=O)c1cc(-c2cccs2)on1	-0.9%	-3.7	7.5	?	-19.9
O=C(c1c[nH]c2ccccc12)C(O)C(c1ccccc1)N1CCOCC1 (centres undefined)	-16.7%	2.2	1.7	1.1	-29.1
c1cncc(C2OCC3(CO2)COC(c2cccnc2)OC3)c1 (centres undefined)	-2.1%	-3.4	-3.8	-2.6	nt
Cc1ccc2nc(-c3ccc(NC(=O)c4cccnc4)cc3)oc2c1	9.9%	9.8	-0.6	1.1	nt
O=C(NCC1CCCO1)c1ccc(COc2ccc(Br)cc2)cc1 (centres undefined)	11.4%	5.8	3.4	6.5	-34.6
COc1ccc(CN(C)C(=O)Cc2ccc(OC)c(S(=O)(=O)N3CCOCC3)c2)cc1	nt	nt	1.4	-7.3	nt
O=C(CC1CCCCC1)NCc1ccccn1	-10.6%	-0.9	1.7	4.2	-18.7
CCOC(=O)C(C)Sc1nc(=O)n2cc(C)ccc2n1 (centres undefined)	3.9%	3.6	0.7	0.3	nt
O=C(Nc1ccc(Cl)cc1)Nc1cc([N+](=O)[O-])ccc1F	10.6%	14.5	2.9	0.6	-19.4
COCc1ccc(C(=O)N2CCCC(N3CCN(c4ccccc4C)CC3)C2)s1 (centres undefined)	nt	nt	0.3	-1.6	nt
NC(=O)CSc1nnc(Cc2csc(Nc3ccc(F)cc3)n2)n1Cc1ccccc1	-1.0%	-0.1	2.4	-6.8	-20.0
CCn1c(SCC(=O)Nc2ccc(C(C)=O)cc2)nc2nc3c(cc2c1=O)CCCC3	0.1%	-4.8	-0.2	3.6	-40.0

Random excerpt: 5 compounds from above
SMILES	Mtb H37Rv	Arbovirus anti	RecA splice inh	Mtb betalactam	YopH inh	others
Cc1ccc2nc(-c3ccc(NC(=O)c4cccnc4)cc3)oc2c1	9.9%	9.8	-0.6	1.1	nt
Cc1c(C(=O)NCCC2=CCCCC2)cccc1[N+](=O)[O-]	13.6%	7.0	-2.5	-1.4	-45.6
Cc1ccc(-c2c(C(=O)N/N=C/c3c[nH]c4ccccc34)nnn2-c2nonc2N)cc1	nt	nt	2.4	0.7	nt
Cc1ccc(N2CCN(c3ccc(C)cc3)C2c2ccccn2)cc1	11.9%	-0.3	4.2	-4.8	-12.3
COC(=O)CN1C2(C#N)CCCCC2CC2CCCCC21C#N (centres undefined)	-10.6%	7.6	1.7	-13.2	-16.9

Other compounds
SMILES	Mtb H37Rv	Arbovirus anti	RecA splice inh	Mtb betalactam	YopH inh	others
Cc1cc(C)c2cc(C#N)c(SCC(=O)NCC3CCCO3)nc2c1 (centres undefined)	-6.3%	-5.2	-1.6	-1.2	-11.5
CCS(=O)(=O)Nc1cc(C(=O)OC)ccc1C(=O)OC	-5.9%	0.8	2.4	0.2	-3.8
Cc1occc1C(=O)NCc1ccccc1F	13.1%	2.1	4.2	3.9	-37.1
O=C1C=C(NCCOC23CC4CC(CC(C4)C2)C3)C2(CCCCC2)O1	1.2%	-7.7	5.3	3.5	nt
Cc1cc(C(=O)Nc2c(C)n(C)n(-c3ccccc3)c2=O)on1	-3.9%	4.9	2.5	0.3	-53.4
CCc1cc(C(=O)OC)c(NC(=O)CC2Sc3ccc(C(F)(F)F)cc3NC2=O)s1 (centres undefined)	-1.4%	3.1	-0.3	2.6	-22.1
CSc1ccc(NC(=O)Nc2cccn(Cc3ccccc3)c2=O)cc1	-6.4%	18.0	7.1	85.5	nt
CN1CCN(C(=O)c2ccc(S(=O)(=O)c3ccc(Br)cc3)cc2)CC1	-8.9%	-2.0	-6.5	-7.5	-40.0
COCCOC(=O)c1[nH]c2c(c1C)C(=O)CC(c1cc(OC)ccc1OC)C2 (centres undefined)	-0.9%	-11.7	0.2	-2.6	-34.5	Arbovirus anti repeat=-14.1
N#Cc1ccccc1CSc1nc2ccc(NC(=O)c3ccccc3C(=O)O)cc2s1	-7.5%	7.5	nt	-0.5	nt
Nc1ccccc1Nc1ccc([N+](=O)[O-])cc1[N+](=O)[O-]	0.5%	-8.7	0.4	6.7	-29.2

Only part of the results is shown (hit frequency here may not be typical).
